B2AR ag = beta2AR agonists driving receptor internalization, primary screen, cell-based, FAP fluorogen, flow cytometry | actives 0.43% (n = 340,000) | Am2.2-beta2AR cells; reference of the scale not given here | AID 504454, 2011 | response, % (no concentration beside the values);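 active = response above a set limit, near 3 SD of response in nonfluorescent compounds, cut at about 42% in these data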;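 also: stock transfer was 100 nL into about 11 µL; a reference agonist was the positive control; negative values mostly stem from fluorescent compounds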
Target sequence (P07550 whole entry, looked up): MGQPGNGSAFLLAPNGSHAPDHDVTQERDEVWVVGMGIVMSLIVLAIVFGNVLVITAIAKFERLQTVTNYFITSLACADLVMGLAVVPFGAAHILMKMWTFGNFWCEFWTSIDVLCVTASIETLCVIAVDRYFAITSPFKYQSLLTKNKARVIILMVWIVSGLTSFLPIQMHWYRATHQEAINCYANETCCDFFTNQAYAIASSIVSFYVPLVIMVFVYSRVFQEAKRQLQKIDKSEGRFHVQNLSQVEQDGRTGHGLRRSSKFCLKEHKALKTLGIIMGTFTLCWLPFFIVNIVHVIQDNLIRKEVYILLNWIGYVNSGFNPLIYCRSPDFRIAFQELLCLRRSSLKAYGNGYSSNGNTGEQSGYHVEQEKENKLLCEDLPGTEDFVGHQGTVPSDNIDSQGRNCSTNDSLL
rRNA inh HTS = reduced GFP signal of wild-type E. coli, primary screen, bacterial rRNA inhibitor project, GFP/RFP fluorescence, OD600, single point. E. coli WT GFP vs humanized-ribosome RFP mutants, 24 h; active compounds read low; DMSO median 0, no signal -100. GFP signal change (wild-type ribosome), % (no concentration beside the values). actives 1.6% (n = 350,000). AID 720706, 2013;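 active = significant combined selectivity score with lowered wild-type GFP, culture density cut under 30%, mutant RFP and density less affected; inactive = any of these conditions unmet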; also: one replicate is shown; some compounds called inactive have numbers as strong as hits
rRNA inh HTS OD600 = recorded beside rRNA inh HTS, whose call it bears; OD600 change, %; measured here: OD600 growth;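 optical density of the mix in the first replicate; 0 = DMSO median and -100 = no signal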
rRNA inh HTS RFP = second read-out of rRNA inh HTS, no call of its own (marks repeat the call); RFP signal change, %; measured here: RFP humanized mutant strains;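 first replicate; 0 = DMSO median and -100 = no signal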
The depositor's hits bear a star. Some of the compounds tested; rates above refer to the full screens.

rRNA inh HTS RFP	rRNA inh HTS OD600	B2AR ag	rRNA inh HTS	Compound
-0.5	-70	26	-40	CC1C(=O)C(C)C(c2cc(Br)ccc2O)NC1c1cc(Br)ccc1O (stereo unspecified)
-0.8	5	12	-3	COc1cc(C(=O)NNC(=O)COc2ccc(Br)cc2)ccc1OCC(=O)N1CCOCC1
3.9	17	-4	8	CC[C@]12C(=O)N(C)C[C@H]([C@@H]3C(=O)N(C)C(=O)[C@@H]31)N2C(=O)c1ccc(C(C)(C)C)cc1
-2.5	-33	-20	-31	Cc1cc(O)cc2c1C1CCC3(C)C(=O)CCC3C1C=C2 (stereo unspecified)
-1.4	-8	4	-6	N#Cc1ccccc1S(=O)(=O)N1CCN(C(=O)CCNS(=O)(=O)c2ccc(Cl)cc2)CC1
0.5	5	2	-2	C=CC[C@H]1C=C[C@@H](C(C(=O)OC)C(=O)OC)CN1C(C)=O
-16	-75	1	-55	CC#Cc1cc2c(cc1O)CCC1C2CCC2(C)C(O)CCC12 (stereo unspecified)
-0.1	-1	6	1	COc1cc(C(=O)OCc2csc(CC(=O)Nc3ccccc3C)n2)ccc1OCC(C)C
2.1	5	-2	2	CCN(CC(=O)NCc1cccs1)C(=O)/C=C/c1cc(OC)ccc1OC
-1.5	9	-2	19	COc1cc(NCCCNC(C)C)c2nccc(C)c2c1
-0.1	-1	12	-1	O=C(COc1ccccc1Cl)Nc1ccc2[nH]c(=O)[nH]c2c1
3.2	3	-5	-2	Clc1ccccc1CSc1cnnc2ccccc12
0.5	11	4	-13	Cc1cc2oc(=O)cc(-c3ccccc3)c2c(C)c1-c1ccc(N(C)C)cc1
-1.2	20	-12	10	CCOc1nc(OCC)c2[nH]c(C(=O)O)c(Br)c2n1
-2.0	-4	-3	-9	COP(=O)(OC)C(Nc1ccc(C)cc1)c1ccc(Br)cc1 (stereo unspecified)
10	14	20	-12	CCOC(=O)c1c(NC(=O)CN2CCN(S(=O)(=O)c3cc(Cl)ccc3Cl)CC2)sc(C(=O)N(C)C)c1C
2.4	6	2	5	O=Nc1nc2ncccn2c1-c1ccccc1
0.5	4	19	9	Cc1cccn2c(=O)c3cc(C(=O)NCc4ccccc4)c(=N)n(CCCN4CCOCC4)c3nc12
-2.3	-18	3	-14	O=C1COc2ccc(C(=O)COC(=O)Cc3c(F)cccc3Cl)cc2N1
-2.0	3	-1	5	O=[N+]([O-])c1ccccc1C=CC=NN=Cc1ccccc1O
2.1	-24	12	-9	CC1OC1c1ccc(-c2ccc(C3OC3C)cc2)cc1 (stereo unspecified)
4.0	25	-4	18	Clc1ccc(-c2nnc(-c3ccc4ccccc4c3)o2)cc1
-2.9	3	0	6	O=C(O)C1CCC(C(=O)O)SS1 (stereo unspecified)
4.0	13	1	7	CCNc1ncnc2c1cnn2C1CCCO1 (stereo unspecified)
-1.3	1	2	2	COC(=O)c1nn(C)c(=O)[nH]c1=O
2.3	-3	1	-2	CCc1c(N)nc(N)nc1Nc1ccc(C)c(C)c1
1.0	-1	16	2	CC(C)N=C(N)N=C(N)Nc1ccc(Cl)cc1
4.4	3	6	-1	O=S1(=O)CCN(c2ccccc2CC(c2c[nH]c3ccccc23)c2c[nH]c3ccccc23)CC1
6.6	16	-1	0	CC[C@]12c3[nH]c4ccc(OC)cc4c3CCN1C(=O)C(CC(=O)NC(C)(C)C)C[C@@H]2C(=O)N1CCN(C(=O)c2ccco2)CC1 (stereo partly specified)
0.2	9	0	10	CCOC(=O)C(CO)NC(=O)C1(NC(C)=O)CCCC1 (stereo unspecified)
10	-34	5	-36	Nc1ncnc2c1ncn2[C@@H]1O[C@H](CNCc2ccc(OCc3ccccc3)cc2)[C@@H](O)[C@H]1O
3.3	9	-7	0	Cc1oc(=O)cc(OCc2ccccc2)c1C
-0.8	3	-9	0	O=C(COC(=O)CC1SC(N2CCCC2)=NC1=O)Nc1ccc(Br)cc1 (stereo unspecified)
6.9	-12	-6	-13	CC1(C)C(=O)Nc2ccccc2N1C(=O)COC(=O)CNS(=O)(=O)c1ccc(Br)cc1Cl
-13	2	-7	-1	CCCN(CC(=O)Nc1ccc(F)c(F)c1F)C(=O)Cc1ccc(OC)c(S(=O)(=O)N2CCOCC2)c1
-1.0	-3	1	-4	Cc1cccc(N2CCN(C(=O)CN3C(=O)NC(C)(C4CC4)C3=O)CC2)c1C (stereo unspecified)
11	-12	7	-17	CNC(=O)c1sc(N2N=C3/C(=C\c4ccccc4)CCCC3C2c2ccccc2)nc1C (stereo unspecified)
1.6	-5	-3	-9	COc1ccc(CNC(=O)CN2C(=O)NC(c3ccccc3)(c3ccccc3)C2=O)cc1OC
0.9	0	-6	3	O=C(Cc1ccc(NC(=O)C2CCCN(C(=O)C3CCCC3)C2)cc1)Nc1cccc(C(=O)N2CCCCC2)c1 (stereo unspecified)
6.2	10	2	8	O=C(Oc1cccc2c(O)cccc12)c1ccco1
-0.2	-4	7	-8	COc1cc(/C=C/C(=O)Nc2ccc(S(=O)(=O)Nc3ncccn3)cc2)ccc1OCC#N
-0.7	4	-4	8	COc1ccc(S(=O)(=O)NCC2(N3CCOCC3)CCCCC2)cc1OC
-0.6	18	-10	14	CCOC(=O)C1=NS(=O)(=O)NC(C)=C1
-2.8	17	1	10	O=[N+]([O-])c1cccc(C=NN=C2c3ccccc3-c3ccccc32)c1
-1.6	7	5	4	CCOc1ccc(S(=O)(=O)N2CCN(C(=O)c3ccc(Cl)c(S(=O)(=O)N4CCOCC4)c3)CC2)cc1
0.4	5	0	-8	N#Cc1c(N2CCN(c3ccc(F)cc3)CC2)nc(N)c2c(N)nc3c(c12)CC(=O)N3C1CC1
-0.8	11	2	5	CCN1C(=O)[C@H]2[C@H]3CN=C(SCc4ccc(C(=O)OC)cc4)N3[C@@](C)(C(=O)OC)[C@H]2C1=O
-0.4	4	0	3	O=C(N/N=C/c1ccncc1)c1cccc(S(=O)(=O)N2CCCC2)c1
-7.7	4	12	4	Cc1c(N=Nc2c(-c3ccc([N+](=O)[O-])cc3)[nH]n(C(N)=S)c2=O)cccc1[N+](=O)[O-]
-4.3	2	-9	-2	CCCn1c(N)c(C(=O)CSc2nnc3ccccn23)c(=O)n(C)c1=O
-0.5	-9	4	5	CCOCc1c(C(=O)N2CCN(CC(=O)Nc3ccc(F)cc3)CC2)oc2ccccc12
4.2	9	-2	-1	COc1cccc(CN(C)CCCn2ccc(NC(=O)OCc3ccccc3)nc2=O)c1
-0.9	9	-6	11	O=C(Nc1ccc2oc(=O)c(C(=O)O)cc2c1)Oc1ccccc1
6.0	9	17	42	Cc1ccc2nc3c(cc(C(=O)NCc4ccccc4)c(=N)n3CCCn3ccnc3)c(=O)n2c1
-0.5	7	-1	3	N#CCCn1nc2c(c1N)CCC2
1.6	4	6	-6	O=C(COC(=O)c1ccc[n+]([O-])c1)Nc1ccc(Cl)cc1[N+](=O)[O-]
0.1	-2	1	0	NS(=O)(=O)c1cccc(NC(=O)CSc2nc3ccccc3c(=O)n2CC2CCCO2)c1 (stereo unspecified)
-1.7	-11	-1	-1	Cc1cccc(NC(=O)CN(C)C(C)C(=O)Nc2ccc(S(=O)(=O)N3CCCC3)cc2)c1C (stereo unspecified)
-1.6	7	-5	3	O=[N+]([O-])c1ccc(NCCNc2ccc([N+](=O)[O-])cc2)cc1
13	8	6	-1	O=C1C(O)=CC(=C(c2ccccc2)c2ccccc2)c2ccccc21

(cont.)
rRNA inh HTS RFP	rRNA inh HTS OD600	B2AR ag	rRNA inh HTS	Compound
-2.2	7	-3	3	Clc1ccc(Cc2ccccn2)cc1
0.5	7	9	6	Cc1ccc2c(c1)N(CC(=O)Nc1nccs1)C(=O)CO2
3.1	17	-24	9	Cc1ccc(SCC(=O)N2CCN(c3ccc(F)cc3)CC2)cc1
5.9	-16	6	-2	Cc1cc2c(cc1C)NC1(C[C@H]3CCC(=O)N4CC[C@@H](C1)[C@@H]34)C(=NC(C)(C)CC(C)(C)C)N2 (stereo partly specified)
-1.6	4	6	8	C=C1c2ccccc2O[C@H](C(=O)OCC)[C@H]1OC
1.4	16	-2	11	CN[C@H](C(=O)NC[C@H]1O[C@@H](n2cnc3c(N)ncnc32)[C@H](O)[C@@H]1O)[C@@H](C)OCc1ccccc1
1.2	8	-3	4	CCCCC1(CC)SCC(=O)NC1=O (stereo unspecified)
1.9	24	-7	18	COc1ccccc1-c1nnc(SC(C)C(=O)NCC2CCCO2)n1C (stereo unspecified)
15	-36	5	4	O=S(=O)(NCc1ccccc1)c1ccccc1NCCc1ccccc1
7.0	10	-7	8	Cc1cc(C)n2nc(C(=O)OCC(=O)Nc3cc(S(=O)(=O)N4CCOCC4)ccc3Cl)nc2n1
4.7	9	-9	10	Cn1c(=O)c2[nH]c(=O)[nH]c2n(C)c1=O
0.5	2	10	1	NC(=O)c1ccc(-c2nnn(CC(=O)N(C3CCCCC3)C3CCS(=O)(=O)C3)n2)cc1 (stereo unspecified)
-0.1	18	-5	-1	COc1ccc(S(=O)(=O)N2CCCCC2)cc1NC(=O)Cc1ccc(Br)cc1
-11	-83	32	-53	CN1CCN(CC(O)COc2ccc(C34CC5CC(CC(C5)C3)C4)cc2)CC1 (stereo unspecified)
1.4	9	-2	19	COc1cc(OC)cc(C(=O)OCC(=O)Nc2nnc(-c3ccccc3)o2)c1
1.1	-2	-3	-8	CCOC(=O)C1=CN(Cc2cccc(F)c2)S(=O)(=O)NC1c1ccc2ccccc2c1 (stereo unspecified)
-0.8	-1	0	1	Cc1ccc(S(=O)(=O)N2CCN(C(=O)CCNC(=O)c3ccccc3Cl)CC2)cc1
-2.5	7	-1	5	Nc1cccc(N=[N+]([O-])c2cccc(N)c2)c1
1.3	21	4	20	Cc1cccc(C(=O)NC2CCN(S(=O)(=O)c3cccc(F)c3)CC2)c1
-12	-60	-5	-41	O=C(O)c1ccccc1-c1ccccc1C(=O)Nc1ccc2c(c1)C(=O)c1ccccc1-2
5.9	-7	-13	-8	CN(CCOc1ccc(Cl)cc1)C(=O)c1cccc(S(=O)(=O)N2CCN(c3ccccc3)CC2)c1
-2.5	4	13	-2	COc1ccc(NC(=O)COC(=O)c2ccc(S(=O)(=O)N(C)c3ccccc3OC)cc2)cc1
0.5	5	-6	1	O=C(O)c1ccc(C=NNC(=O)c2cccc3ccccc23)cc1
0.3	12	-3	10	O=C(CN1C(=O)c2ccccc2C1=O)NCC(=O)Nc1ccccc1
1.6	13	-9	19	CC(C)C(Cl)=NOC(=O)Nc1ccc(S(N)(=O)=O)cc1
0.9	2	5	4	COc1ccc(S(=O)(=O)N2CCN(C(=O)Cc3ccsc3)CC2)cc1
1.5	16	1	26	O=C(NCc1ccccc1)c1ccc(NC(=O)C2CC2)cc1
4.5	-15	2	-17	Nc1nc(N)c(Br)c(Nc2ccc(Cl)c(Cl)c2)n1
-2.5	11	0	5	COc1cc2c(cc1NC(=O)C(F)(F)F)-c1ccc(NC(=O)C(F)(F)F)cc1C2
5.5	11	2	3	ON=C1CCCC2CCCCC12 (stereo unspecified)
1.8	14	1	18	Cc1cccc(C(O)C(O)c2cccc(C)n2)n1 (stereo unspecified)
-0.8	-1	-10	0	O=C(c1ccco1)N1CCN(C(=O)c2cn(-c3ccccc3)nc2-c2ccc(F)cc2)CC1
2.3	12	-7	9	CN1CCN(S(=O)(=O)c2cccc(C#N)c2)C(c2ccccc2)C1 (stereo unspecified)
-1.9	-12	10	-9	CC(Sc1nnc(CN2CCCC2)n1Cc1ccccc1)C(=O)Nc1ccc(F)cc1Cl (stereo unspecified)
0.4	11	-6	7	CN(CC(=O)NC(=O)Nc1ccccc1F)Cc1ccccc1
5.7	-3	-9	3	CC(=O)C1(O)CCC2C3CC(C)C4=CC(=O)C=CC4(C)C3(F)C(O)CC21C (stereo unspecified)

3 structures already listed, arranged by molecular weight, largest number first:
rRNA inh HTS RFP	rRNA inh HTS OD600	B2AR ag	rRNA inh HTS	Compound
-1.9	-12	10	-9	CC(Sc1nnc(CN2CCCC2)n1Cc1ccccc1)C(=O)Nc1ccc(F)cc1Cl (stereo unspecified)
5.7	-3	-9	3	CC(=O)C1(O)CCC2C3CC(C)C4=CC(=O)C=CC4(C)C3(F)C(O)CC21C (stereo unspecified)
2.3	12	-7	9	CN1CCN(S(=O)(=O)c2cccc(C#N)c2)C(c2ccccc2)C1 (stereo unspecified)

Gathered by group: the compounds so far containing a COOH group.
rRNA inh HTS RFP	rRNA inh HTS OD600	B2AR ag	rRNA inh HTS	Compound
-1.2	20	-12	10	CCOc1nc(OCC)c2[nH]c(C(=O)O)c(Br)c2n1
-2.9	3	0	6	O=C(O)C1CCC(C(=O)O)SS1 (stereo unspecified)
-0.9	9	-6	11	O=C(Nc1ccc2oc(=O)c(C(=O)O)cc2c1)Oc1ccccc1
-12	-60	-5	-41	O=C(O)c1ccccc1-c1ccccc1C(=O)Nc1ccc2c(c1)C(=O)c1ccccc1-2
0.5	5	-6	1	O=C(O)c1ccc(C=NNC(=O)c2cccc3ccccc23)cc1

Some of the entries above, set out differently.
Every second line gives: rRNA inh HTS RFP, rRNA inh HTS OD600, B2AR ag, rRNA inh HTS
O=C(c1ccco1)N1CCN(C(=O)c2cn(-c3ccccc3)nc2-c2ccc(F)cc2)CC1
    -0.8, -1, -10, 0
CN1CCN(S(=O)(=O)c2cccc(C#N)c2)C(c2ccccc2)C1 (stereo unspecified)
    2.3, 12, -7, 9
CC(Sc1nnc(CN2CCCC2)n1Cc1ccccc1)C(=O)Nc1ccc(F)cc1Cl (stereo unspecified)
    -1.9, -12, 10, -9
CN(CC(=O)NC(=O)Nc1ccccc1F)Cc1ccccc1
    0.4, 11, -6, 7

Assay outcomes: PubChem BioAssay, several laboratories
